GLA inh pH 4.5 = alpha-galactosidase A (human) inhibition, pH 4.5; P06280; purified enzyme, 4-MU-alpha-Gal fluorescence, pH 4.5; activity change, negative = inhibition, % at 105 µM; 230,000 tested, under 10 active; AID 1467; inconclusive = small, poorly fitted or top-dose-only inhibition, or a rising curve; inactive = flat fitted curve, though single readings scatter; no compound was filed as active;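 note: 0% = full activity with enzyme and -100% = basal without enzyme; dose as in the result columns while the protocol names 77 µM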
Rango-impB inh = Rango-importin beta binding inhibition; Potency, µM (titrated, usually from 92.2 µM), without a hit: top-dose inhibition of complex formation; Rango CFP/YFP FRET sensor + importin beta, 45 min; Q14974; hit rate 0.031% among 340,000; active = rising FRET ratio curve, often small or poorly fitted; inconclusive = mostly compound fluorescence or quenching in the first reads; inactive = flat curves in all reads;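 note: potency is the fitted concentration of half-maximal effect; 0% = DMSO wells and 100% = buffer wells lacking importin beta; nearly all actives have a fitted effect of over 15% in size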
Target sequence (Q14974 whole entry, looked up): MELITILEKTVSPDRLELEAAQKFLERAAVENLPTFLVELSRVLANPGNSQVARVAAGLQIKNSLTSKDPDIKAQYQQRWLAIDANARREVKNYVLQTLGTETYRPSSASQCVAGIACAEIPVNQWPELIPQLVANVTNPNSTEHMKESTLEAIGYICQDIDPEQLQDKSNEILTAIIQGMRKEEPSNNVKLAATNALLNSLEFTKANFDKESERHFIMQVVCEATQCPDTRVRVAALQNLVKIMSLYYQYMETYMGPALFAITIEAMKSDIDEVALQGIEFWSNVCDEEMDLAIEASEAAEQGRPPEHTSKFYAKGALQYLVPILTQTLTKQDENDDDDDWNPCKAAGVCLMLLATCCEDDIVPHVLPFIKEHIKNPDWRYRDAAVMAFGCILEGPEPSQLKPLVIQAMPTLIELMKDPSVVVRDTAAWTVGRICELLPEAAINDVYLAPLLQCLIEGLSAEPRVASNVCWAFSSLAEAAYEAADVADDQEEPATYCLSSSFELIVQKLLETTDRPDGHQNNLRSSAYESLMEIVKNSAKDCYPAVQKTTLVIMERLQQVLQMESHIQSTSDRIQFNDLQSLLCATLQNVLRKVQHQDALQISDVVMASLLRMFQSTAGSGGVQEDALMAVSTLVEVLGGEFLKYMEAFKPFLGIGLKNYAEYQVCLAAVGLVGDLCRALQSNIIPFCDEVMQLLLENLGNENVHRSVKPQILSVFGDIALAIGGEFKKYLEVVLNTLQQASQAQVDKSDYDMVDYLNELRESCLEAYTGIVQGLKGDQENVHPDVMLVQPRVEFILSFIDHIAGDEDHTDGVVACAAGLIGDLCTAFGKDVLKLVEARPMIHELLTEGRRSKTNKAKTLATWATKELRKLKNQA
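FRET biosensor (snurportin 1 IBB flanked by EYFP and cerulean), 50 nM, with compound 5 min, then 0.125 microM importin beta in PBS, 1 mM DTT, 0.02% Tween-20, 0.1% BSA. CFP/YFP ratio read after 45 min at room temperature; pre-read flags interference.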
miR-21 reporter = miR-21 reporter, rising signal; 340,000 tested, under 10 active; Potency, µM (highest dose often 38.3 µM), for the others: top-dose reporter change, positive = more light; HeLa miR-21 FLuc reporter, luciferase, 48 h; AID 2288; active = well fitted rising curve with a large enough effect; inconclusive = small, poorly fitted or top-dose-only effect; inactive = no such curve, though single readings can be large or run the other way;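 note: % of control where 0% means no effect; miR-21 action dims this reporter so a rising signal means less miR-21 action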
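Luminescence from a firefly luciferase reporter carrying a miR-21 binding site downstream, stably expressed under a CMV promoter in HeLa cells that make miR-21 endogenously, reports miRNA modulation after 48 h compound exposure up to approximately 40uM final.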
Rango dissoc inh = prevents RanGTP from dissociating the Rango-importin beta complex | Biochemical FRET Rango-importin beta, RanGTP-induced dissociation | Potency, µM (series often up to 46.1 µM), without a hit: at the top dose activity change, negative = inhibition | hit rate 0.071% among 340,000 | AID 540253; active means falling FRET ratio curve, often poorly fitted, with flat reads before Ran was added; inconclusive means other falling curves, or compound fluorescence or quenching; inactive means flat or rising ratio curve;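 note: potency is the fitted concentration of half-maximal effect; % of control where 0% means no effect; nearly all actives have a fitted effect of over 45% in size; -100% = wells without RanGTP and RCC1; the record marks most hits as doubtful in a second field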
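Rango (0.1 uM)–importin beta (0.25 uM) complex; RanGTP-RCC1 trigger; 45 min RT; CFP/YFP FRET read.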
An asterisk follows results filed as active; ? = inconclusive; nt = no result given; & = joins results of further samples.

SMILES	GLA inh pH 4.5	Rango-impB inh	miR-21 reporter	Rango dissoc inh
COc1ccc(CCNC(=O)C(=O)N/N=C/c2cccs2)cc1OC	-2	0.3%	1%	15%
CC1CCCN(C(=O)c2ccc(S(=O)(=O)N3CCC(c4nc5ccccc5s4)CC3)cc2)C1 (configuration not stated)	nt	3.6%	nt	-15%
CC(=O)N1c2ccc(S(=O)(=O)N3CCC(C(=O)NCc4ccccc4Cl)CC3)cc2CC1C (configuration not stated)	nt	3.5%	5%	-5%
COc1ccc(N2CCN(C(=O)COC(=O)CCOc3cc(C)ccc3C)CC2)cc1	nt	-0.7%	nt	-3%
Oc1ccc(CN2CCN(c3ncccn3)CC2)cc1	nt	0.1%	-6%	-10%
Cc1noc(C)c1C(=O)OCC(=O)NCCc1ccccc1	nt	-1.5%	nt	-16%
CC(C)CN1C(=O)c2ccc(C(=O)Nc3ccncc3)cc2C1=O	10	2.3%	-1%	29%
COc1ccc(C2CC2/C(C)=N/OC(=O)C2CC2)cc1 (configuration not stated)	-1	3.6%	-13%	1%
CCc1ccc(NC(=O)CSc2nc3ccccc3nc2N2CCCC2)cc1	nt	?	-7%	-1%
Cn1c(CNC(=O)c2ccc3c(c2)OCO3)nnc1SCC(=O)Nc1ccc(F)cc1	nt	-0.1%	7%	-4%
CC(C)C(C(=O)NC1CCCCC1)N(CC1CCCO1)C(=O)CNS(=O)(=O)c1ccc(F)cc1 (configuration not stated)	5	5.3%	-1%	6%
Cc1c(C(=O)N2CCN(Cc3cccs3)CC2)oc2ccccc12	nt	0.7%	nt	2%
O=C(Nc1ccc([N+](=O)[O-])cc1)c1ccccc1F	5	-0.6%	-64%	8%
CCOc1ccc(S(=O)(=O)N/N=C2/CCCC(=O)C2)cc1	-8	1.3%	-3%	2%
COc1ccc(CCN(C)C(=O)CNC(=O)Cc2cccc3ccccc23)cc1OC	nt	-1.7%	-7%	-2%
CCc1nnc(N/N=C/c2ccc(N3CCC(C)CC3)c([N+](=O)[O-])c2)n1N	-7	0.1%	-18%	0%
Cc1cc(C(=O)CN2C(=O)NC3(CCCCC3C)C2=O)c(C)n1Cc1cccs1 (configuration not stated)	1	?	-83%	5%
CC(C)Cc1nc2c(nnn2Cc2ccccc2F)c(=O)[nH]1	4	-4.1%	-7%	-8%
CCC1(CC)C(=O)NC(=S)N=C1N	nt	?	nt	-8%
C=CCn1c(SCC(=O)c2ccc(F)cc2)nnc1-c1ccc2c(c1)OCO2	-16	-0.3%	-9%	?
CCOc1cc(C(=O)Nc2ccc(N3CCN(S(C)(=O)=O)CC3)cc2)cc(OCC)c1OCC	-3	-1.9%	-5%	11%
Cc1ccccc1OCC(=O)N(Cc1cccs1)C1CCS(=O)(=O)C1 (configuration not stated)	-10	-0.1%	-5%	-14%
N=c1oc2ccccc2cc1C(=O)Nc1cccc(F)c1	nt	0.3%	-73%	2%
CC(C)OCCCN1CN(S(=O)(=O)c2cccs2)c2nc3ccccc3nc21	-7	-1.8%	-29%	0%
COc1ccc(-c2noc(CCC(=O)N3CCN(c4ccc(C(F)(F)F)cc4)CC3)n2)cc1	nt	-1.1%	nt	0%

Three records picked at random from the list so far:
SMILES	GLA inh pH 4.5	Rango-impB inh	miR-21 reporter	Rango dissoc inh
Oc1ccc(CN2CCN(c3ncccn3)CC2)cc1	nt	0.1%	-6%	-10%
CCc1ccc(NC(=O)CSc2nc3ccccc3nc2N2CCCC2)cc1	nt	?	-7%	-1%
C=CCn1c(SCC(=O)c2ccc(F)cc2)nnc1-c1ccc2c(c1)OCO2	-16	-0.3%	-9%	?

The results go on:
SMILES	GLA inh pH 4.5	Rango-impB inh	miR-21 reporter	Rango dissoc inh
COc1ccc(CC2(CO)CCN(Cc3cnn(-c4ccccc4OC)c3)CC2)cc1	1	0.2%	-4%	1%
CCCNC(=O)c1ccc(N2CCC3(CC2)CC(c2cccc(Br)c2)=NO3)c(N)c1	nt	-4.9%	nt	10%
O=C(N/N=C\c1ccc(Sc2ccccn2)o1)c1cccc(F)c1	-5	-1.9%	-12%	1%
CCOc1ncccc1C(=O)Nc1ccc(F)cc1	4	-1.2%	-6%	15%
CC1(C)CC(=O)C2=C(C1)OC(N)=C(C#N)C2CCc1ccccc1 (configuration not stated)	-4	2.5%	-7%	10%
CC(C)[C@H](NC(=O)N1CC(=O)Nc2ccccc21)C(=O)N[C@@H](Cc1c[nH]c2ccccc12)C(=O)O	nt	0.8%	3%	18%
Cc1c(OCC(=O)NC(Cc2ccc(Cl)cc2)C(=O)O)ccc2c1oc(=O)c1ccccc12 (configuration not stated)	nt	3.3%	-6%	10%
COc1ccc(CCNC(=O)NC2CCCCC2)cc1OC	-1	-1.1%	-13%	0%
COc1cccc(C(=O)CSc2nnc(-c3cccs3)o2)c1	0	-0.4%	-2%	-1%
CN1/C(=C\C(=O)c2oc3ccccc3c2N)C(C)(C)c2ccccc21	-2	0.4%	8%	10%
COc1ccc(-c2csc(NC(=O)c3ccc(C(C)(C)C)cc3)c2C(=O)O)cc1	nt	-2.4%	nt	9%
Cc1coc2cc3oc(=O)c(CCC(=O)NCc4ccccn4)c(C)c3cc12	nt	2.0%	-4%	1%
O=C(NC1CCN(c2ncccn2)CC1)c1c(F)cccc1F	nt	2.7%	-5%	9%
CCn1cc(CCCC(=O)NCc2cccc(OC)c2)c2ccccc21	nt	-4.1%	1%	11%
C=CCOc1nc(N2CCCC2)nc(N2CCCC2)n1	-13	-2.9%	-5%	-9%
O=C(Cc1ccccc1)N1CCN(S(=O)(=O)c2ccc([N+](=O)[O-])cc2)CC1	7	-2.6%	-1%	0%
COc1ccccc1C(=O)Oc1ccc(C(C)C)cc1	-3	3.8%	-13%	32%
CN(Cc1cccc([N+](=O)[O-])c1)Cc1cccc2ccccc12	nt	3.6%	0%	-14%
Cc1ccc(OC(=O)c2sc(Cl)nc2C)cc1C	-3	-2.4%	-1%	0%
CCNC(=S)Nc1ccc(Cl)c([N+](=O)[O-])c1	7	?	12%	12%
CC(=O)c1c(C)[nH]c(C(=O)OCC(=O)NCCc2ccc(F)cc2)c1C	-2	-1.9%	-3%	-10%
CCOC(=O)C1=C(Nc2cccc(Cl)c2)OCC1=O	-5	-0.6%	-7%	5%
CCCc1[nH]nc2c1C(Cc1ccccc1)C(C#N)=C(N)O2 (configuration not stated)	3	-0.2%	-5%	-10%
COC(=O)CNC(=O)Cc1c(C)n(C(=O)c2ccc(Cl)cc2)c2ccc(OC)cc12	nt	0.2%	2%	-7%
Cn1cccc1C(C#N)(CC#N)c1cccc(F)c1C#N (configuration not stated)	0	-1.4%	1%	4%

Some of the entries above in a different format.
GLA inh pH 4.5	Rango-impB inh	miR-21 reporter	Rango dissoc inh	SMILES
7	?	12%	12%	CCNC(=S)Nc1ccc(Cl)c([N+](=O)[O-])c1
-2	-1.9%	-3%	-10%	CC(=O)c1c(C)[nH]c(C(=O)OCC(=O)NCCc2ccc(F)cc2)c1C
-5	-0.6%	-7%	5%	CCOC(=O)C1=C(Nc2cccc(Cl)c2)OCC1=O
3	-0.2%	-5%	-10%	CCCc1[nH]nc2c1C(Cc1ccccc1)C(C#N)=C(N)O2 (configuration not stated)

The listing continues.
SMILES	GLA inh pH 4.5	Rango-impB inh	miR-21 reporter	Rango dissoc inh
COc1ccccc1-c1nnc2sc(COc3ccccc3)nn12	7	4.0%	-7%	5%
O=C(O)c1[nH]c2ccc(Cl)cc2c1CC(=O)N1CCN(c2ccccc2)CC1	-1	4.6%	-3%	0%
COc1ccc(C(=O)NC(=S)NCc2ccco2)cc1OC	3	1.4%	0%	-22%
COC(=O)Cc1c[nH]c2cccc(OCC(O)CN(Cc3ccccc3)C(C)C)c12 (configuration not stated)	-12	-0.9%	14%	-10%
CCOc1ncccc1C(=O)Nc1ccc2c(c1)OCO2	-4	-1.7%	-14%	0%
COc1ccc(CCNC(=O)CN2C(=O)COc3ccc(S(=O)(=O)N4CCOCC4)cc32)cc1OC	nt	-1.0%	-6%	1%
O=C(O)c1ccc(NC2=C(Cl)C(=O)c3ccccc3C2=O)cc1	1	2.9%	-23%	-10%
CN(C(=S)SCc1ccccc1)C1CCS(=O)(=O)C1 (configuration not stated)	5	-2.9%	-4%	3%
CN(Cc1c(C(=O)N/N=C/c2ccc(O)cc2)nnn1-c1nonc1N)C1CCCCC1	nt	-2.9%	1%	0%
O=c1c2ccccc2c(-c2ccccc2)nn1Cc1ccc(Cl)cc1	-7	-1.0%	1%	1%
CCOC(=O)c1ccc(NC(=O)c2nc[nH]c2C(=O)N(C)Cc2ccccc2)cc1	-7	-4.0%	1%	13%
CN(Cc1ccccc1)C(=O)[C@H]1CCC(=O)N1Cc1ccco1	-1	-0.5%	-2%	-13%
CC(C)NC(=O)CSc1nnc(-c2ccc(C(C)(C)C)cc2)n1C	-5	4.6%	-21%	5%
COc1cccc(OCCCOc2ccccc2C(C)C)c1	-3	-4.1%	-4%	1%
Cc1ccc2[nH]c(C(=O)NN=C3CCCCC3)c(-c3ccccc3)c2c1	9	0.7%	?	6%
COc1ccc(CCNC(=O)c2cc(=O)c3ccc(C)cc3o2)cc1OC	nt	3.5%	0%&26%	-9%
OC(CNCC1(N2CCCCC2)CCCCC1)COc1ccc(Cl)cc1Cl (configuration not stated)	1	0.1%	-6%	18%
Cc1ccccc1-n1c(C)cc(/C=N/Nc2ccc([N+](=O)[O-])cn2)c1C	-3	3.9%	-62%	3%
O=C(c1ccccc1Sc1c(Cl)cccc1[N+](=O)[O-])N1CCOCC1	12	1.1%	-1%	11%
COc1ccc(N2CCN(S(=O)(=O)c3ccc(OC)cc3)CC2)cc1	3	-0.5%	-13%	4%
COc1cc(/C=C2/NC(=O)N(Cc3ccccc3F)C2=O)ccc1O	0	?	7%	-27%
O=C(O)c1ccccc1C(=O)NCc1ccccc1	0	2.6%	0%	-1%
Cn1c(O)c(N=NC(=O)Cc2c[nH]c3ccccc23)c2ccccc21	nt	7.9%	nt	-19%
O=C1C(Cl)=C(NCc2ccco2)C(=O)c2ccccc21	nt	4.2%	nt	-5%
COc1ccc(S(=O)(=O)N2CCN(C(=O)[C@H](Cc3ccccc3)NC(=O)c3ccco3)CC2)cc1	nt	-1.7%	nt	-3%

Continuation.
SMILES	GLA inh pH 4.5	Rango-impB inh	miR-21 reporter	Rango dissoc inh
COC(=O)C1CN(Cc2ccccc2)C(=O)C1=O (configuration not stated)	nt	-1.7%	nt	-8%
COc1ccc(N2C(=O)CC(N(CCc3ccccc3)C(=O)/C=C/C(=O)O)C2=O)cc1 (configuration not stated)	2	0.1%	-2%	-1%
CC(=O)N(Cc1cc(=O)[nH]c2ccccc12)c1ccc(C)cc1	1	-6.1%	-2%	0%
O=C(CNC(=O)c1ccco1)NCC(=O)OCc1ccc(Cl)cc1Cl	nt	-4.7%	-1%	0%
Cc1ccc2[nH]c(O)c(N=Nc3nc4ccccc4s3)c2c1	1	3.5%	-2%	3%
COc1ccccc1-c1sc2ccccc2c1-c1ccc2c(c1)OCCO2	nt	1.0%	nt	8%
CCCn1c2c(c(O)c(C(=O)Nc3ccccn3)c1=O)CCCC2	11	nt	-1%	nt
COc1ccc(C2=NN(C(C)=O)C(c3cccs3)C2)cc1OC (configuration not stated)	nt	2.5%	-62%	-12%
Cc1cccn2cc(CCNS(=O)(=O)c3cccc([N+](=O)[O-])c3)nc12	1	0.3%	3%	6%
Cc1ccccc1-n1c(C)nnc1SCC(=O)NNC(=O)c1ccccc1	-21	8.4%	0%	24%
CCn1c(SCC(=O)O)nnc1-c1ccccc1	3	4.6%	-2%	-12%
CCN(CC)S(=O)(=O)c1ccc(O)c(C(=O)OCC(=O)Nc2ccc(OC(F)(F)F)cc2)c1	0	-4.7%	0%	13%
CCC(=O)NC1=C(Cl)C(=O)C(NC(=O)CC)=C(Cl)C1=O	-3	-2.7%	?	16%
COC(/C=C/Nc1ccc(Br)cc1)=C(C#N)C#N	12	-2.6%	-4%	12%
FC(F)Oc1ccc(NC(=S)Nn2cnnc2)cc1	-1	-2.7%	-2%	13%
CC(C)CCOc1cccc(OCC(=O)NC2CCS(=O)(=O)C2)c1 (configuration not stated)	-1	5.2%	6%	0%
COc1ccc(CNC(=O)[C@@H]2CC=C[C@@H]3CCN(Cc4ccccc4)C(=O)[C@@H]32)cc1	nt	3.3%	nt	1%
CC1CCCC(C)N1C(=O)CSc1nc2ccccc2s1 (configuration not stated)	1	2.7%	-35%	4%

Screens (PubChem BioAssay)

This is a subset; rates above refer to the full screens.
